# High-throughput results from PubChem.
# HCMV UL50-53 inh: inhibitors of HCMV UL50-UL53 nuclear egress complex interaction. inhibition, % (no concentration beside the values). HTRF UL50-UL53 interaction, normalized percent inhibition. actives 0.15% (n = 190,000);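 active = both replicates at 50% or more, plus weaker picks with an unusually low signal ratio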;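 also: stock transfer was 100 nL into about 20 µL; 0% = negative control wells and 100% = wells with untagged competitor protein; inactives centre near -12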
# GIV-Gai inh: GIV-Galpha-i interaction inhibition; percent of control (FP), % (test concentration not listed); Galpha-i3/FITC-GIV peptide fluorescence polarization, 90 min; active compounds read low; scaled: aluminum fluoride 0%, vehicle 100%; actives 0.42% (n = 210,000); P08753; AID 1224905;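 active = replicate mean at 85% of control or lower, very high polarization wells dropped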;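 also: lower values mean more displacement of the GIV peptide from Galpha-i3; wells of about 15 µL received 100 nL stock; the first replicate is given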
# Target sequence (P08753 whole entry, looked up): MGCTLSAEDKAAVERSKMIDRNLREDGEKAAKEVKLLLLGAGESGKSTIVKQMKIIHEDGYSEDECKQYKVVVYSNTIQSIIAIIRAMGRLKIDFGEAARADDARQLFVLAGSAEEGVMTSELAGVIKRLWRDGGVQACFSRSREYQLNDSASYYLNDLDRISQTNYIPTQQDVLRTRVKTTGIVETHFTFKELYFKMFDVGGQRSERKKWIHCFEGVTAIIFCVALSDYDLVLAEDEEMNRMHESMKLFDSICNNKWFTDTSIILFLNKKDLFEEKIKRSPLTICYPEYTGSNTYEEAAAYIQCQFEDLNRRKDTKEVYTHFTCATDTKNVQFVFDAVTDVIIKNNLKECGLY
# Sa growth inh: S. aureus growth inhibition | S. aureus RN4220 growth, OD600, 20 h, 42 °C; active compounds read low | actives 0.53% (n = 170,000) | AID 720641 | relative growth, % (test concentration not listed);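 active = growth at 42 °C up to 50% and 20 or more points under that at 30 °C, or under 10% at both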;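 also: 300 nL library stock went into each well; scaled to the means of positive and negative controls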
# Sa growth inh second temp: second read-out of Sa growth inh, no call of its own (marks repeat the call); relative growth, %; measured here: growth at 30 °C;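 optical density after 20 h as mean of two plates; 100% = untreated growth and lower means inhibition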
# Numbers without * were called inactive; . = no result given; & = joins results of further samples. These rows are one share of the data (hit frequency here may not be typical).
SMILES,HCMV UL50-53 inh,GIV-Gai inh,Sa growth inh,Sa growth inh second temp
COc1cc2c(cc1OC)C(=O)CC2,-13.1,106.4,97.0,92.0
CC(=O)c1ccc2c(c1)N(CCCN(C)C)c1ccccc1S2,-52.6&-39.8&-74.8,102.1,97.4,88.8
COc1ccc(CNC(=O)C2CCCN(c3nnc(C)c4c(C)n(-c5ccc(C)cc5)nc34)C2)cc1 (configuration not stated),.,103.8,94.4,94.8
CCOc1ccc(C(=O)NCc2noc(-c3ccc(OC)cc3)n2)cc1,-11.7,106.3,.,.
O=C(NCCc1c[nH]c2ccccc12)c1cccnc1,-1.7&-17.2,99.5&97.8,110.7,70.3
CCn1c(C(=O)NCCCOC(C)C)cc2c(=O)oc3ccccc3c21,-4.3,104.6,.,.
COc1ccc(C(=O)CC(=O)c2ccc(C(C)(C)C)cc2)cc1,-31.7&1.7,.,91.8,85.7
Cc1ccc(C)c(NC(=O)Cn2cc(C(=O)c3ccco3)c3ccccc32)c1,-45.1,105.3,97.4,63.9
CCN1CCN(CCCNC(=O)c2cc3c(s2)-c2c(C)cccc2OC3)CC1,-54.1,108.1,110.7,89.1
C1CCC(C(CC2CCCCN2)C2CCCCC2)CC1 (configuration not stated),1.0&-15.6,.,96.0,85.8
Cc1nc2ccccn2c(=O)c1CCN1CCC(C(=O)c2ccc(F)cc2)CC1,-61.1&-111.8&-30.2&-67.2,106.2,89.6&94.2,84.9&84.8
c1ccc(CC2=NCCN2)cc1,-20.4&-6.1&-9.7&-19.4,.,99.9,93.6
CCCNC(=O)C1CCC(Cn2c(=O)c3sccc3n(CC(=O)NCc3ccccc3)c2=O)CC1 (configuration not stated),.,103.4,105.1,77.5
CCc1ccc(S(=O)(=O)Nc2cccc(-c3cn4c(C)cccc4n3)c2)cc1,11.1,105.3,.,.
c1ccc(CN(CC2=NCCN2)c2ccccc2)cc1,-8.8&-10.5&-5.0&-24.1&-10.4,.,87.8,93.3
COc1ccccc1N1CCN(CCCNc2cc(=O)n(C)c(=O)n2C)CC1,-1.1&-22.8&-64.4&-20.5&-19.9,101.3,97.5,94.9
COc1ccc(CCNc2nc(SCc3ccccc3Cl)nc3ccccc23)cc1OC,.,104.8,84.9,91.1
O=C(NCc1ccco1)c1ccc2c(c1)N(Cc1cccc(Cl)c1)C(=O)c1ccccc1S2=O (configuration not stated),.,101.3,143.8,85.0
O=C(c1ccc(F)cc1)C1CCN(CCn2c(=O)[nH]c3ccccc3c2=O)CC1,-40.2&-36.5&-1.6&0.0&4.0&0.7,100.9&104.5,87.1&87.2,81.2&85.2
CC(=O)[C@H]1CCC2C3C[C@H](C)C4=CC(=O)CC[C@]4(C)C3[C@@H](O)C[C@@]21C (some centres not stated),-18.6,.,95.5,86.1
Oc1ccc(/C=C/c2cc(O)cc(O)c2)cc1,-11.7&-7.2&-7.2&-31.1&-48.7&-32.5,108.1,80.1,75.4
C[C@]12CCC(=O)C=C1CC[C@@H]1[C@@H]2CC[C@@]2(C)[C@H]1CC[C@]2(O)C(=O)CO,-16.3,103.8,.,.
CC[N+](C)(CC)CCOC(=O)C(O)(c1ccccc1)C1CCCCC1 (configuration not stated),-1.7,.,94.6,93.3
CCC(C)n1ncn(-c2ccc(N3CCN(c4ccc(OCC5COC(Cn6cncn6)(c6ccc(Cl)cc6Cl)O5)cc4)CC3)cc2)c1=O (configuration not stated),-41.8&-64.9,104.9,95.1&89.0,75.1&66.5
c1coc(-c2nc3ccccc3c3nnc(SCc4cn5ccccc5n4)n23)c1,-11.7,100.8,.,.
SMILES,HCMV UL50-53 inh,GIV-Gai inh,Sa growth inh,Sa growth inh second temp
CCCn1cnc2c1c(=O)n(CCCCC(C)=O)c(=O)n2C,-17.2,100.7,.,.
CCCCCCCCCCCCCCC[C@H](O)[C@H](N)CO,-16.6,104.2,.,.
O=C(CCNNC(=O)c1ccncc1)NCc1ccccc1,-28.6&-38.4&12.9&-21.2&-20.4,106.3&96.7,93.8&98.7&86.9,89.3&103.8&89.2
OCCN1CCN(CCCN2c3ccccc3Sc3ccc(Cl)cc32)CC1,-29.9&-9.0&-39.4&-5.5,96.5,98.6,83.7
CC(C)C(=O)Nc1cccc(C(F)(F)F)c1,8.3,94.5,98.7,100.6
O=C(Nc1cc2cc[nH]c2cn1)c1ccccc1,-3.2&5.6,.,113.0,83.0
CCC(=O)N1CCC(C(=O)O)CC1,-3.0,.,96.7,88.9
COc1cc(C(c2c(C)[nH][nH]c2=O)c2c(C)[nH][nH]c2=O)ccc1OC(=O)c1ccccc1F,-45.4,101.4,105.5,82.0
COc1ccc(C(=O)NCc2ccc(OCCN(C)C)cc2)cc1OC,-35.2&-24.6&-18.8,106.6,92.0&96.9,88.0&85.5
COc1ccccc1-c1cccc(C(=O)O)c1,17.7,106.7,108.2,104.0
CCOC(=O)c1ccc(N)cc1,-6.6&-22.7&-14.7,.,92.8,88.4
C[C@@H]1CC2C3C[C@H](F)C4=CC(=O)C=C[C@]4(C)[C@@]3(F)[C@@H](O)C[C@]2(C)[C@@]1(O)C(=O)COC(=O)C(C)(C)C (some centres not stated),-14.4,.,83.9,87.5
Cc1[nH]n2c(=O)cc(-c3ccc(Cl)cc3)nc2c1-c1ccccc1,-28.4&-16.5,106.0&100.8,-0.5*,-0.3*
O=C1CCCc2cc(S(=O)(=O)N3CCC(C(=O)NC4CCCCCC4)CC3)ccc2N1,-20.8,102.8,100.6,89.4
CN(C)CCOC(C)(c1ccccc1)c1ccccn1 (configuration not stated),-18.0&-5.1&-17.9&-79.6&-21.5&-26.2,106.3,94.6&95.3,82.7&87.3
COc1ccc(CC(=O)NCC(c2cccs2)S(=O)(=O)c2ccc(Cl)cc2)cc1 (configuration not stated),.,95.9,78.9,77.2
CN1CCOC(c2ccccc2)c2ccccc2C1 (configuration not stated),-48.7&-11.4,.,82.3,80.9
COc1ccc(-n2ccn(CC(=O)Nc3ccc(C)c(C)c3)c(=O)c2=O)cc1OC,-26.7,100.0,101.4,77.5
CCOc1ccc(NC(=O)Cn2cc(C(=O)c3ccco3)c3ccccc32)cc1,-15.4,101.6,105.4,84.8
CN(C(=O)CCCOc1ccc2[nH]c(=O)ccc2c1)C1CCCCC1,-40.4&-6.2&-18.4,99.6&102.1,85.2,82.8
CC(=O)c1ccc(S(=O)(=O)NC(=O)NC2CCCCC2)cc1,-36.0&-17.3&6.0,103.7,92.7,90.9
O=C(CC1N=C2c3ccccc3N=C(SCc3ccc(F)cc3)N2C1=O)NC1CCCCC1 (configuration not stated),.,106.2,100.3,106.9
CN1CCN(C(c2ccccc2)c2ccccc2)CC1,-11.4&-6.8&-8.7,.,86.2,79.9
NC(=O)c1cn(Cc2c(F)cccc2F)nn1,-13.9&-18.0,103.6,.,.
Cc1cc(-c2ccccc2)nnc1NCCN1CCOCC1,-46.2&-7.0,.,93.5,92.1

# Just HCMV UL50-53 inh and GIV-Gai inh, for some of the entries so far:
smiles	HCMV UL50-53 inh	GIV-Gai inh
Cc1nc2ccccn2c(=O)c1CCN1CCC(C(=O)c2ccc(F)cc2)CC1	-61.1&-111.8&-30.2&-67.2	106.2
c1ccc(CC2=NCCN2)cc1	-20.4&-6.1&-9.7&-19.4	.
CCCNC(=O)C1CCC(Cn2c(=O)c3sccc3n(CC(=O)NCc3ccccc3)c2=O)CC1 (configuration not stated)	.	103.4
CCc1ccc(S(=O)(=O)Nc2cccc(-c3cn4c(C)cccc4n3)c2)cc1	11.1	105.3
c1ccc(CN(CC2=NCCN2)c2ccccc2)cc1	-8.8&-10.5&-5.0&-24.1&-10.4	.

# (list continues)
SMILES,HCMV UL50-53 inh,GIV-Gai inh,Sa growth inh,Sa growth inh second temp
CCN(CC)CCn1c(=O)c(Cc2ccc(OC)cc2)nc2ccccc21,-47.6,100.2,.,.
CCOC(=O)N1CCc2c(sc3c2c(=O)n(Cc2ccccc2)c(=O)n3CC(=O)Nc2ccc(F)cc2)C1,-30.1,102.3,111.6,77.2
C=CC1=C(C(=O)O)N2C(=O)[C@@H](NC(=O)/C(=N\O)c3csc(N)n3)[C@H]2SC1 (stereo in doubt),-47.2,.,-0.4*,-0.4*
COc1ccc(/C=C/C(=O)Nc2ccccc2C(=O)O)cc1OC,-89.4&-104.6&-78.1&-9.4&-9.4&-80.0,100.1&103.9,95.1&91.0&87.0,91.8&82.3&94.4
CCOCCCNC(=O)C(=O)Nc1c2c(nn1-c1ccc(OC)cc1)CSC2,.,103.1,115.6,67.9
O=C(CCN1CCC(c2ccccc2)C1)c1ccc2c(c1)OCCO2 (configuration not stated),-3.1,107.5,78.6,81.0
CC(N)C1CCC(C(=O)Nc2ccncc2)CC1 (configuration not stated),-17.9&-21.8,105.8,.,.
CC(=O)O[C@]1(C(C)=O)CCC2C3C=C(Cl)C4=CC(=O)[C@@H]5C[C@@H]5[C@]4(C)C3CC[C@@]21C (some centres not stated),-15.9,.,87.9,83.8
CCc1nnc(NC(=O)CSc2nc3c([nH]c4ccccc43)c(=O)n2-c2ccc(OC)cc2)s1,.,108.4,126.5,100.0
Cc1ccc(OCC(O)Cn2c(C3CC3)nc3ccccc32)cc1 (configuration not stated),-20.7,102.6,.,.

# Among those listed so far, 4 have a thiophene ring, fused or not:
SMILES,HCMV UL50-53 inh,GIV-Gai inh,Sa growth inh,Sa growth inh second temp
CCN1CCN(CCCNC(=O)c2cc3c(s2)-c2c(C)cccc2OC3)CC1,-54.1,108.1,110.7,89.1
CCCNC(=O)C1CCC(Cn2c(=O)c3sccc3n(CC(=O)NCc3ccccc3)c2=O)CC1 (configuration not stated),.,103.4,105.1,77.5
COc1ccc(CC(=O)NCC(c2cccs2)S(=O)(=O)c2ccc(Cl)cc2)cc1 (configuration not stated),.,95.9,78.9,77.2
CCOC(=O)N1CCc2c(sc3c2c(=O)n(Cc2ccccc2)c(=O)n3CC(=O)Nc2ccc(F)cc2)C1,-30.1,102.3,111.6,77.2
